KCNQ2 inh = KCNQ2 potassium channel inhibitors, primary screen, cell-based, CHO-K1, FluxOR thallium flux, B-score (AID 2156) | O88943 | 20 min; hits give low values; only compounds with negative scores are shown here; some inactives read as strong as hits | B-score at 10 µM | hit rate 1.1% among 310,000;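 active = fluorescence ratio B-score at most minus 3 library SDs, with starting brightness B-score within 2 library SDs, cut at about -5.5 in these data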
Target sequence (O88943 whole entry, looked up): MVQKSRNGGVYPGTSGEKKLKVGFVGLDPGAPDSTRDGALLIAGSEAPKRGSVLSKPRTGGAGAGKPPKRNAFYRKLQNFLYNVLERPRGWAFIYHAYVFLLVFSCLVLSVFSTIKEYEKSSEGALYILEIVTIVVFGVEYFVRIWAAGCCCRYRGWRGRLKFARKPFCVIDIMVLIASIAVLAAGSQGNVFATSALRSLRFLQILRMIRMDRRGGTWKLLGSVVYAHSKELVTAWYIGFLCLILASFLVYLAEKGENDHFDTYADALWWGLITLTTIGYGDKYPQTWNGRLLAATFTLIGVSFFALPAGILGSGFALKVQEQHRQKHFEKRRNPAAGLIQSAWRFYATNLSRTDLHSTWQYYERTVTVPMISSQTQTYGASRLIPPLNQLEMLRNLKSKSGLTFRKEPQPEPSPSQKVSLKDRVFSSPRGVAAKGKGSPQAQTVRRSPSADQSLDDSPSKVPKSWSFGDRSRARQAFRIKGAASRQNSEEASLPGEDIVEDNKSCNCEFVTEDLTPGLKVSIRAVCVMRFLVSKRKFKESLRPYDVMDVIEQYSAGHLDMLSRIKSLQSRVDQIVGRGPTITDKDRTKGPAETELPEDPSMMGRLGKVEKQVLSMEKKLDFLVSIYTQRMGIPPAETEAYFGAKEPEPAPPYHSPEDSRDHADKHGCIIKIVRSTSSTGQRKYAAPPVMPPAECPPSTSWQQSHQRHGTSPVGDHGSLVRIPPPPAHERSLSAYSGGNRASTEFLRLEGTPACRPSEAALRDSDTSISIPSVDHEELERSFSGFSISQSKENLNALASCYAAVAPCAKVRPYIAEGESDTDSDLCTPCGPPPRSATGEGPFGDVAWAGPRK
KCNQ2 inh baseline = recorded beside KCNQ2 inh, whose call it bears; B-score; measured here: initial fluorescence intensity artifact check;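 brightness before thallium and not channel activity; 0 = typical well and far values either way flag optical interference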
* hit, by the source's call; i = inactive. The list is partial; the hit share may differ from the screen's.

SMILES	KCNQ2 inh	KCNQ2 inh baseline
Cc1ccc(C(C[N+](=O)[O-])Sc2ccc(N)cc2)cc1 (configuration not stated)	-9.4*	-0.29*
COc1ccc(C(CNC(=O)COc2ccc([N+](=O)[O-])cc2)N2CCCCC2)cc1 (configuration not stated)	i	-0.24
COc1cccc(-n2c(SC3CCOC3=O)nc3ccccc3c2=O)c1 (configuration not stated)	i	-0.03
CC(=O)Nc1ccc(S(=O)(=O)NC(CC(=O)N(C)Cc2ccccc2)C(C)C)cc1 (configuration not stated)	i	-0.46
CCOC(=O)c1c(NC(=O)COC(=O)Cn2c(C(F)(F)F)nc3ccccc32)sc(C)c1C	i	1.5
COc1ccc([N+](=O)[O-])cc1NC(=S)NC(=O)C(C)(C)C	i	-2
Cc1cccc(N2CCN(S(=O)(=O)c3cn(C)cn3)CC2)c1C	i	6.6
COc1nc(-c2ccccc2)cc(-c2ccc3c(c2)OCO3)c1C#N	i	-2.6
COc1cc(OC)c(-c2noc(C(=O)OC(C)(C)C)c2C(=O)OC(C)(C)C)c(OC)c1	i	-3
Cn1c(Cn2cnc([N+](=O)[O-])n2)nnc1SCC(=O)Nc1ccc(Br)cc1	i	-0.96
O=C(CN(Cc1cccs1)C(=O)c1csnn1)NC1CCCC1	i	0.01
COC(=O)c1c(Cl)c2n3ccccc3c(C)c(-c3ccccc3)c-2c1C(=O)OC	i	0.75
CCNc1nc(Oc2ccc(F)cc2)cc(C(F)(F)F)n1	i	-1.9
COc1ccc(S(=O)(=O)Nc2ccc3c(c2)COC3=O)cc1OC	i	-0.05
O=C(Nc1ccncc1)Nc1ccc(F)cc1	i	-1.6
Cc1cc(N2CC(C(=O)NCc3cccs3)CC2=O)ccc1C(C)C (configuration not stated)	i	1.2
COc1cccc(CNC(=O)c2ccc(CS(=O)(=O)Cc3ccccc3C)o2)c1	i	0.04
CC(=O)N(Cc1ccccc1)Cc1cn(CCC#N)nc1-c1cccc([N+](=O)[O-])c1	i	-3.5
CCCc1nc2ccc(NC(=O)c3ccco3)cc2c(=O)n1Cc1ccccc1Cl	i	0.03
COc1ccc(C(=O)CSc2nc3ccccc3n2CC(=O)c2ccccc2)cc1	i	-1
CCn1c(=O)c([N+](=O)[O-])c(NC2CCS(=O)(=O)C2)c2ccccc21 (configuration not stated)	i	-1.4
C=C[C@]1(C)C=C2CCC3[C@](C)(CCC[C@@]3(C)C(=O)O)C2CC1 (some centres not stated)	i	0.29
CCCc1nnc(NC(=O)CN2CCN(C)CC2)s1	i	-1.1
Cc1cc(C)cc(C(=O)NN2CCOCC2)c1	i	0.09
CC(c1ccco1)N(C(=O)Nc1ccc(Cl)cc1)c1ccccn1 (configuration not stated)	i	-1.5
O=C(CCCC(=O)N1CCN(c2cccc(Cl)c2)CC1)c1ccccc1	i	-1.9
CN(CC(=O)Nc1ccc(F)cc1)C(=O)CSc1ncccn1	i	-0.34
Cc1ccc(S(=O)(=O)NC(=O)Nc2c(C)n(C)n(-c3ccccc3)c2=O)cc1	i	0.05
CCN(C(=O)CN1C(=O)S/C(=C\c2cccc(Cl)c2)C1=O)C1CCS(=O)(=O)C1 (configuration not stated)	i	0.02
CC1(C)NC(=O)N(CCCOc2ccc3c(c2)CCC3)C1=O	i	-0.01
CC1CCN(CCCNC(=O)c2nn(C)c3c2CS(=O)(=O)c2ccccc2-3)CC1	i	-1
Cc1ccc(NC(=O)N2CCC(C(N)=O)CC2)cc1	i	0.72
CCOCCCNC(=O)Cn1nc(Cc2ccncc2)c2ccccc2c1=O	i	-0.75
Cc1ccc(-c2nc3ncccn3c2NC2CCCCC2)o1	i	0.68
C=C1C(=O)O[C@H]2C1CC[C@@](C)(O)C13C=CC(C)(C21)C1(C3)C(=O)O[C@@H]2C3C(C)=CCC3[C@](C)(O)C[C@H](OC(C)=O)C21 (some centres not stated)	i	2.2
CN1\C(=C/C=C/C=C/C=[N+](C)C)C(C)(C)c2ccccc21	-9.7*	-0.34*

A different layout for part of the listing above:
Results follow in this order: KCNQ2 inh	KCNQ2 inh baseline
CC1(C)NC(=O)N(CCCOc2ccc3c(c2)CCC3)C1=O
→ i	-0.01
CC(c1ccco1)N(C(=O)Nc1ccc(Cl)cc1)c1ccccn1 (configuration not stated)
→ i	-1.5
Cc1ccc(-c2nc3ncccn3c2NC2CCCCC2)o1
→ i	0.68
CCN(C(=O)CN1C(=O)S/C(=C\c2cccc(Cl)c2)C1=O)C1CCS(=O)(=O)C1 (configuration not stated)
→ i	0.02

Additional results.
SMILES	KCNQ2 inh	KCNQ2 inh baseline
COc1ccc(/C=C/c2ccc(=O)n(Cc3ccccc3)n2)cc1	i	-1.8
Cc1ccc(-c2nc(CCNC(=O)c3ccco3)cs2)cc1	i	1.1
CCCNC(=O)C(=O)NCC1CCCN1CC (configuration not stated)	i	1.2
O=C(Cn1c(-c2ccccc2)noc1=O)Nc1ccc(S(=O)(=O)N2CCOCC2)cc1	i	-0.01
CCOC(=O)C1CCCN(c2ncnc3c2cnn3-c2ccc(OC)cc2)C1 (configuration not stated)	i	-0.71
COC(=O)Cc1c(C)c2ccc(OCC(=O)NC3CCS(=O)(=O)C3)cc2oc1=O (configuration not stated)	i	-0.41
CCc1ccc(N2CN(Cc3cccnc3)CNC2=S)cc1	i	-0.36
COc1ccc(CN(C)CC2CCCN(CCc3ccc(F)cc3)C2)c(OC)c1OC (configuration not stated)	i	0.27
Cn1c(=O)c2c(nc(Oc3ccc(-c4ccccc4)cc3)n2C)n(C)c1=O	i	0.33
CCc1c(C(=O)N/N=C/c2ccco2)nnn1-c1nonc1N	i	0.15
COc1ccc(OCCC(=O)OCC(=O)c2ccc[nH]2)cc1	i	0.96
CCc1[nH]nc(C(=O)NC2CCCc3c2cnn3-c2cc(C)cc(C)c2)c1C (configuration not stated)	i	0.42

Two of the compounds above, comma-delimited.
mol,KCNQ2 inh,KCNQ2 inh baseline
Cc1ccc(-c2nc(CCNC(=O)c3ccco3)cs2)cc1,i,1.1
CCc1[nH]nc(C(=O)NC2CCCc3c2cnn3-c2cc(C)cc(C)c2)c1C (configuration not stated),i,0.42

Next section.
SMILES	KCNQ2 inh	KCNQ2 inh baseline
CCN(CC)S(=O)(=O)c1cc(NC(=O)C(C)Nc2ccccc2N2CCOCC2)ccc1C (configuration not stated)	i	0.25
Cc1ccc2[nH]c(C(=O)N3CCN(C(c4ccccc4)c4ccccc4)CC3)cc2c1	-5.8*	1.7*
CC(NC(=O)c1ccco1)C(=O)Nc1nc(-c2ccccn2)cs1 (configuration not stated)	i	0.43
CCOC(=O)c1[nH]c(=O)[nH]c1CN(Cc1ccco1)Cc1[nH]c(=O)[nH]c1C(=O)OCC	i	-0.72
Cc1nn(C(=O)c2cccnc2)c(C)c1Sc1ccc(Br)cc1	i	0.09
CCOC(=O)c1cnc2c(C)cccc2c1NCCCN1CCOCC1	i	2.1
CC1CCCCC1NC(=O)/C=C/c1nc2ccccc2s1 (configuration not stated)	i	-0.68
COc1ccc(C(=O)N2CCOC2CNC(=O)C(=O)NCc2ccc(Cl)cc2)cc1 (configuration not stated)	i	-0.01
O=S(=O)(NCCc1csc(-c2ccc(C(F)(F)F)cc2)n1)c1ccc2c(c1)OCCO2	i	0.85
COc1ccc(CN2CCCCC2C)c(C)c1C (configuration not stated)	i	-1.2
O=C(NCc1ccco1)c1csc2c1CCCC2	i	-0.62
COc1cccc(N/C(C)=C/C(=O)c2ccc(Br)cc2)c1	-7.6*	-2.4*
COc1cc(NC(=O)c2csc(N)n2)cc(C(=O)Nc2cccc(C(F)(F)F)c2)c1	i	-0.95
CCC(C)(C)NC(=O)C(c1cccc(OC)c1OC)N(Cc1ccc(OC)cc1)C(=O)CCC(=O)Nc1cc(C)on1 (configuration not stated)	i	-0.39
COc1ccccc1CN1CC(C(=O)NCc2cnn(C)c2)CCC1=O (configuration not stated)	i	3.9
COc1ccc(-c2nn3c(-c4ccc(F)cc4)nnc3s2)cc1	i	0.56
Cc1ccc(C2=NN(CCC(=O)NCCC(C)C)C(=O)CC2)cc1	i	1
Cc1ccc(S(=O)(=O)N[C@H](C(=O)N2CCC(C(=O)N[C@H](C(=O)O)c3ccccc3)CC2)C(C)C)cc1	i	0.37
Cc1ccc(-c2csc3nc4c5ccccc5c(NCCCN(C)C)nn4c(=O)c23)cc1	i	-0.92
C=C(C)C(=O)Nc1ccc2c(c1)OCCOCCOCCO2	i	-1
O=[N+]([O-])c1ccc(OCc2cn([C@@H](CO)c3ccccc3)nn2)c(Br)c1	i	-0.7
CN(C)C=NC(=O)c1cc(C(=O)c2ccc(C(C)(C)C)cc2)c[nH]1	i	-0.26
COC1c2ccccc2C(=O)N1Cc1ccc(F)cc1 (configuration not stated)	i	2.5
CCCCCn1c(SCCc2ccccc2)nc2c1c(=O)[nH]c(=O)n2C	i	1.8
CCOc1cc(C2NC(=O)NC(c3ccccc3)=C2C(C)=O)ccc1OCC(N)=O (configuration not stated)	i	0.7
CCOc1cc(/C=C2\C(=O)N(Cc3ccc(C)cc3)C(C)=C2C(=O)OC)ccc1O	i	0.62
C#CCN1C(=O)S/C(=C\c2ccc(-c3ccc(C(=O)O)cc3C)o2)C1=O	i	3.3
Cc1ccc2c(C)c(C(=O)N3CCN(c4cnccn4)CC3)oc2c1C	i	-1.6
CC(C)=C1C2C=CC1C1C(=O)N(c3ccc4c(c3)OCO4)C(=O)C21 (configuration not stated)	i	-0.01
CCCCNC(=O)CCC(=O)Nc1ncc(-c2ccc(C)cc2)n1C	i	0.64
CCc1ccc(C(=O)COC(=O)C(Cc2ccccc2)NC(=O)c2ccc(Cl)cc2)cc1 (configuration not stated)	i	0.25
O=C(O)COc1ccc2c(c1)O/C(=C\c1cccs1)C2=O	i	-0.29
CO[C@H]1O[C@H](C)[C@@H](O)C[C@H]1NC(=O)OCc1ccccc1	i	-0.11
Cc1[nH]n(-c2ccc([N+](=O)[O-])cc2)c(=O)c1C=NCC1CCCO1 (configuration not stated)	i	0.14
CCCCCCCCN1[C@@H](CC(C)=O)c2cc(C(F)(F)F)ccc2S1(=O)=O	i	0.23
COc1cc([N+](=O)[O-])c(OC)cc1SCc1n[nH]c(=S)n1-c1ccc(F)cc1	i	-0.12

By substructure: the entries above with a tert-butyl group.
SMILES	KCNQ2 inh	KCNQ2 inh baseline
COc1ccc([N+](=O)[O-])cc1NC(=S)NC(=O)C(C)(C)C	i	-2
COc1cc(OC)c(-c2noc(C(=O)OC(C)(C)C)c2C(=O)OC(C)(C)C)c(OC)c1	i	-3
CN(C)C=NC(=O)c1cc(C(=O)c2ccc(C(C)(C)C)cc2)c[nH]1	i	-0.26

Next results:
SMILES	KCNQ2 inh	KCNQ2 inh baseline
CC(C)N(CCNC(=O)C1CCCN(c2ncnc3c2nc2n3CCCCC2)C1)Cc1ccccc1 (configuration not stated)	i	-0.28
CCOC(=O)C1=C(C)N(C)C(C)=C(C(=O)OCC)C1c1ccccc1	i	-1.1
O=C(COc1ccc(-c2ccccc2)cc1)NN=C1CCCC1	i	-0.24
OCC(Cc1ccccc1)NCc1ccccc1C(F)(F)F (configuration not stated)	i	-1.6
CN(c1ccccc1)S(=O)(=O)c1ccc(NC(=O)c2cccs2)cc1	i	0.84
O=C(OCc1nc2ccccc2s1)c1ccc(Br)o1	i	2.2
Cc1ccccc1OCC(=O)N/N=C/c1ccc2c(c1)OCCO2	i	0.6
COCCN(C(=O)COC(=O)c1ccc2c(c1)OCCO2)c1c(N)n(Cc2ccccc2)c(=O)[nH]c1=O	i	-0.7
Nc1c2c(nc3ccccc13)CCC2	i	-1.8
Cc1onc(-c2c(F)cccc2Cl)c1C(=O)NCCCN1CCOCC1	i	0.97
O=C(COC(=O)CCc1ccccc1)Nc1ncc(Cl)cc1Cl	i	0.92
CCOc1ccc(C(=O)Nc2cccc(-c3nc4ccccc4[nH]3)c2C)cc1[N+](=O)[O-]	i	-1.7
CCOC(=O)CC(=O)CSc1ncnc2c1oc1ccccc12	i	-0.05
Cc1sc2ncn(CC(=O)NCCCC(=O)N3CCN(c4ccccn4)CC3)c(=O)c2c1C	i	-1.9
OC(c1cccc(OCc2ccccc2)c1)c1nnc(-c2ccccc2)o1 (configuration not stated)	i	3
CC(=O)Nc1cccc(-c2nnc3n2CC(C)S3)c1 (configuration not stated)	i	2.4
O=C(CC(c1ccccc1)c1ccccc1)Nc1ncn[nH]1	i	-0.01
CC(Nc1ccccc1CO)C(=O)Nc1cccc(Cl)c1Cl (configuration not stated)	i	0.14
Cc1ccc(C(=O)c2sc3c(c2N)c(=O)[nH]c(=O)n3CCc2ccccc2)cc1	i	-1.3
Cc1cccc(CCN=c2c([N+](=O)[O-])nn(-c3ccccc3)n2O)c1	i	0.97
CC(C)c1ccccc1-n1c(SCC(=O)N2CCc3ccccc3C2)nc2ccccc2c1=O	i	1.8
CC(C)COC(=S)Nc1ccccc1	i	0.77
COC(=O)C(Cc1ccccc1)NC(=O)c1cc(S(=O)(=O)N(C)C)ccc1Cl (configuration not stated)	i	-0.46
COc1ccc(OC)c(NC(=O)C2C3C=CC(C3)C2C(=O)NCc2cccnc2)c1 (configuration not stated)	i	0.09

Entries of single compounds, quoted from the list. Values in the order: KCNQ2 inh	KCNQ2 inh baseline
`OC(c1cccc(OCc2ccccc2)c1)c1nnc(-c2ccccc2)o1` (configuration not stated) is entered as i	3
`Cc1sc2ncn(CC(=O)NCCCC(=O)N3CCN(c4ccccn4)CC3)c(=O)c2c1C` is entered as i	-1.9
`COC(=O)C(Cc1ccccc1)NC(=O)c1cc(S(=O)(=O)N(C)C)ccc1Cl` (configuration not stated) is entered as i	-0.46
`COc1ccc(OC)c(NC(=O)C2C3C=CC(C3)C2C(=O)NCc2cccnc2)c1` (configuration not stated) is entered as i	0.09

The listing continues.
SMILES	KCNQ2 inh	KCNQ2 inh baseline
COc1cc(NC(=O)c2ccc(Cl)cc2)c(OC)cc1Cl	i	-0.15
CCN(C(N)=S)c1ccccc1	i	-1.3
CN1CCN(c2nc(-c3ccccc3)c3cc(Cl)ccc3n2)CC1	i	-0.87
Cc1cc(C(=O)N/N=C/c2c(CO)cnc(C)c2O)c2ccccc2n1	i	0.75
CC1CN(C(=O)c2ccc(NS(=O)(=O)c3ccc(F)c(F)c3)cc2)CC(C)O1 (configuration not stated)	i	0.38
COc1ccc(OC)c(C(c2nnnn2Cc2ccccc2)N2CCC(C(N)=O)CC2)c1 (configuration not stated)	i	-0.26
OCCN1c2ccccc2CCc2ccccc21	i	2.5
